Screening data deposited in PubChem BioAssay by Johns Hopkins Ion Channel Center.
KCNQ2 inh: KCNQ2 potassium channel inhibitors, primary screen, cell-based, CHO-K1, FluxOR thallium flux, B-score (AID 2156). Potassium voltage-gated channel subfamily KQT member 2 (Rattus norvegicus), O88943. 20 min; hits give low values; only compounds with negative scores are shown here; some inactives read as strong as hits. B-score at 10 µM. hit rate 1.1% among 310,000;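 active = fluorescence ratio B-score at most minus 3 library SDs, with starting brightness B-score within 2 library SDs, cut at about -5.5 in these data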
Target sequence (O88943 whole entry, looked up): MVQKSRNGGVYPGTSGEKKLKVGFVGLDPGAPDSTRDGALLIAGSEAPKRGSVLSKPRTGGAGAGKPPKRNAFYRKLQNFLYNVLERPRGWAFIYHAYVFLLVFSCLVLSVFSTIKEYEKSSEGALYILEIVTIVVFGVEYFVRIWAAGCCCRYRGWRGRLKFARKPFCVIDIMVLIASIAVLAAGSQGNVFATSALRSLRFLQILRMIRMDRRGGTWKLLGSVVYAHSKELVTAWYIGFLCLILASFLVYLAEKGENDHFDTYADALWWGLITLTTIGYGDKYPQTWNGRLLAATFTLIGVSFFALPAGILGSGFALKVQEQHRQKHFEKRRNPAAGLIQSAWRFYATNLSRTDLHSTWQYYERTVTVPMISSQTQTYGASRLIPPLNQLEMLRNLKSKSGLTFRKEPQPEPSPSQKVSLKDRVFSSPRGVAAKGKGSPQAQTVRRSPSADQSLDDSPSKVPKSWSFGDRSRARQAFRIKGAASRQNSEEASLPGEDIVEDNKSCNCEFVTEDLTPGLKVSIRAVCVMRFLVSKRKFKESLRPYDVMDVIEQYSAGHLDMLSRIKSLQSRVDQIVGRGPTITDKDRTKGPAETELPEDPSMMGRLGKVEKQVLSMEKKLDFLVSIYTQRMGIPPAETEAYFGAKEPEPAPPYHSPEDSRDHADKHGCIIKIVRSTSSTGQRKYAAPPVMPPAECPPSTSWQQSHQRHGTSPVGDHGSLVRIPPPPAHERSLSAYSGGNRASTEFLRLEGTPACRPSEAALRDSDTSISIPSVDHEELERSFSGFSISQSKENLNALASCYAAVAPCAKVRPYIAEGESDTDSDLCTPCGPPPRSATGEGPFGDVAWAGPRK
KCNQ2 inh baseline: also measured in KCNQ2 inh; calls as there; B-score; measured here: initial fluorescence intensity artifact check;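 brightness before thallium and not channel activity; 0 = typical well and far values either way flag optical interference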
Starred values were filed as active, the others as inactive; i = inactive.

Under each structure – KCNQ2 inh | KCNQ2 inh baseline
Cc1ccc(Cn2c(C(C)Nc3nc(-c4ccc(Cl)cc4)cs3)nc3cc(C(=O)NCCCO)ccc32)cc1 (stereo not drawn)
    i | 1.38
O=C(CN1CCCc2ccccc21)NCc1ccc2c(c1)OCO2
    i | -0.12
Cc1ccc(CNc2nc3ccccc3s2)s1
    i | -0.16
CCc1ccc(-c2cc(C)no2)cc1S(=O)(=O)NCCCN1CCN(c2ccccc2)CC1
    i | 1.17
N#Cc1cnc2ncnn2c1-c1ccccc1
    i | 0.25
Cc1ccc(CN2CCSc3ccc(C(=O)NCC4CCCO4)cc32)cc1 (stereo not drawn)
    i | -0.04
COc1ccc(CNc2nc3nc(C)cc(C)n3n2)cc1
    i | 2.19
CCc1ccc(-c2nc(CN3CCC(C(=O)N4CCN(c5ccccc5)CC4)CC3)c(C)o2)cc1
    i | 0.9
CN(C)CCCC(C)(O)C(Cc1ccccc1)c1ccccc1 (stereo not drawn)
    i | -0.02
O=C(NCc1ccc2c(c1)OCO2)C(=O)NCC1OCCCN1S(=O)(=O)c1cc(F)ccc1F (stereo not drawn)
    i | -0.3

Next section.
Under each structure – KCNQ2 inh | KCNQ2 inh baseline
O=C(NC1CCCC1)C(c1ccc(F)cc1)N(Cc1ccccc1Cl)C(=O)CCl (stereo not drawn)
    i | -2.46
COc1cc(C)nc(N2CCCC(C(=O)NC3CCC(C)CC3)C2)n1 (stereo not drawn)
    i | 0.97
CC(=O)Nc1ccc(OC(=O)N2CCCC2)cc1
    i | 0.64
CCOc1ccccc1C1C(C#N)=C(N)N(N(C)C)C2=C1C(=O)CCC2 (stereo not drawn)
    i | 0.58
Cn1c(-c2ccc(F)cc2)cnc1NCc1cccc(F)c1
    i | -1.66
COc1ccc(C(=O)N/N=C(\C)c2ccc(NC(=O)Cc3ccccc3)cc2)c(OC)c1
    i | -0.05
Cc1cccc(N2CCN(C(=O)Cc3cn(C)c4ccccc34)CC2)c1C
    i | -0.85
O=[N+]([O-])c1ccc(N2CCN(c3ccc(O)cc3)CC2)c(Cl)c1
    i | -2.05
COc1cc(C(=O)N2CCC(O)(c3ccccc3)CC2)cc(OC)c1OC
    i | -0.08
COc1ccccc1-c1nnc2sc(-c3cnccn3)nn12
    i | -2.52

Overlap with the part before: four entries, followed by the next part.
Under each structure – KCNQ2 inh | KCNQ2 inh baseline
Cc1cccc(N2CCN(C(=O)Cc3cn(C)c4ccccc34)CC2)c1C
    i | -0.85
O=[N+]([O-])c1ccc(N2CCN(c3ccc(O)cc3)CC2)c(Cl)c1
    i | -2.05
COc1cc(C(=O)N2CCC(O)(c3ccccc3)CC2)cc(OC)c1OC
    i | -0.08
COc1ccccc1-c1nnc2sc(-c3cnccn3)nn12
    i | -2.52
CN1CC(=O)N=C1N
    i | 1.54
CCCOCCOC(=O)c1[nH]c2c(c1C)C(=O)CC(c1cc(OC)ccc1OC)C2 (stereo not drawn)
    i | 0.78
Cc1ccc(S(=O)(=O)N2CCN(C(C)C(=O)N3CCCc4ccccc43)CC2)cc1 (stereo not drawn)
    i | -0.84
COc1ccc(-c2csc(Nc3cccc(C)n3)n2)cc1
    i | 2.65
O=S(=O)(Nc1nc2ccccc2nc1-[n+]1cccc(N=C([O-])c2ccccc2Cl)c1)c1ccccc1
    i | 3.56
Cc1ccc(/C=C/C(=O)c2c(C)cc(C)[nH]c2=O)cc1
    i | -0.9
CC(C)CCN(C(=O)Nc1ccc(Cl)cc1)C1CCN(C(C)C)CC1
    i | 1.5
O=C(O)C(Cc1ccc(Cl)cc1)Sc1nc2ccccc2[nH]1 (stereo not drawn)
    i | -0.58
COc1ccc(O)c(CN2CCC(n3nccc3NC(=O)C3CCCC3)CC2)c1
    i | 2.52
CCCCC12CN3CC(C)(CN(C1)C3c1ccc([N+](=O)[O-])o1)C2=O (stereo not drawn)
    i | -0.35

Compound profiles, as listed above.
O=C(O)C(Cc1ccc(Cl)cc1)Sc1nc2ccccc2[nH]1 (stereo not drawn) as listed: KCNQ2 inh = i; KCNQ2 inh baseline = -0.58
O=S(=O)(Nc1nc2ccccc2nc1-[n+]1cccc(N=C([O-])c2ccccc2Cl)c1)c1ccccc1 as listed: KCNQ2 inh = i; KCNQ2 inh baseline = 3.56

Continued:
Under each structure – KCNQ2 inh | KCNQ2 inh baseline
O=C(CSc1ccc(-c2ccco2)nn1)NCc1ccc2c(c1)OCO2
    i | -3.14
CC1Oc2ccccc2N(Cc2ccc(F)cc2)C1=O (stereo not drawn)
    i | -1.26
O=C(NCc1ccco1)C1CCCN(S(=O)(=O)c2ccccc2)C1 (stereo not drawn)
    i | -0.29
O=C(CSCc1ccccc1)N1CCN(c2cccc(C(F)(F)F)c2)CC1
    -6.51* | -0.87*
CC(Oc1cc(-c2ccccc2)cc2ccccc12)C(=O)N1CCOCC1 (stereo not drawn)
    i | 0.27
CCOC(=O)C1CCN(C(=O)COc2ccc(Br)cc2)CC1
    i | 1.53
CCCCN(CC)CCNC(=O)c1cc2c(-c3ccc(Cl)cc3)nn(C)c2s1
    -8.41* | 0.06*
N#C/C(=C/c1ccccc1[N+](=O)[O-])c1nc(C2CC2)cs1
    i | -0.03
CC(C)OC(=O)Nc1ccc2c(c1)N(C(=O)CCN1CCOCC1)c1ccccc1CC2
    i | -0.88
CCOC(=O)CN(C(=O)CSc1nnc2c(n1)[nH]c1ccccc12)c1ccccc1
    i | -0.04

The results go on:
Under each structure – KCNQ2 inh | KCNQ2 inh baseline
COC(=O)Cc1c(C)c2ccc(OCC(=O)c3ccc(OC)c(OC)c3)cc2oc1=O
    i | -1.15
COc1ccc(OCCN2CCN(C(=O)c3ccc(OC)c(OC)c3)CC2)cc1
    i | 0.48
Cc1ccc(N2CC(C(=O)OCC(=O)c3ccc[nH]3)CC2=O)cc1 (stereo not drawn)
    i | -0.32
COc1ccc(C(=O)CCC(C)(C)[N+](=O)[O-])cc1
    i | -1.08
COC(=O)c1ccccc1NC(=O)CSc1nncn1-c1cccnc1
    i | -0.11
FC(F)(F)c1cc(-c2ccco2)nc(N2CCN(Cc3ccccc3)CC2)n1
    i | 0.48
Cc1nn(CC(=O)N2CCN(c3ccccc3)CC2)c(=O)c2ccccc12
    i | 1.31
O=c1c2ccccc2sc2ccc(C#CC3(O)CCCCC3)cc12
    i | -1.17
Cc1ccccc1-n1ncc2c(SCC(=O)N3c4ccccc4CC3C)ncnc21 (stereo not drawn)
    i | 0.03
Fc1ccc(NC(=S)NC2CC3CCC(C2)N3Cc2ccco2)cc1 (stereo not drawn)
    i | -0.01

Next section.
Under each structure – KCNQ2 inh | KCNQ2 inh baseline
O=S(=O)(/N=C(\c1ccccc1)N1CCOCC1)c1cccs1
    i | 1.95
CCCNC(=O)C1(CC2CC(c3ccccc3)=NO2)CCN(C(=O)CCCCCBr)CC1 (stereo not drawn)
    i | 0.4
CC(=NCCN1CCN(C(=S)Nc2ccccc2)CC1)C1=C(O)CC(C)(C)CC1=O
    i | 2.68
O=c1c2cnn(-c3ccccc3)c2nc(-c2cccs2)n1-c1cccc(Cl)c1
    -7.55* | -1.98*
COc1cccc(-c2nc(CS(=O)(=O)CC(=O)Nc3c(C)cccc3C)c(C)o2)c1
    i | 0.88
CCN(CC)C(=O)C1CCCN(c2ccc([N+](=O)[O-])cc2/C=N/NC(=O)c2cccc(Br)c2)C1 (stereo not drawn)
    i | -1.26
Cc1ccc(S(=O)(=O)N2CCCC(C(=O)NCc3ccccn3)C2)cc1 (stereo not drawn)
    i | 0.46
C=CCn1c(Cc2nc3ccccc3[nH]2)n[nH]c1=S
    i | 3.08
CC1(C)CC(=O)C2=C(C1)N(c1ccc(F)cc1)C(=O)NC2(C(F)(F)F)C(F)(F)F
    i | 1.41
Cc1nc2nc[nH]n2c(=O)c1NC(=O)CCc1ccccc1
    i | -0.13

Next section
Under each structure – KCNQ2 inh | KCNQ2 inh baseline
COc1ccc(C/C(N)=N/OC(C)=O)cc1OC
    i | -0.08
CC(=O)Nc1ccc(S(=O)(=O)N2CCN(Cc3ccncc3)CC2)cc1
    i | -1.49
Cc1ccc(C(=O)CN2CCN(c3ccccn3)CC2)c(C)c1
    i | -0.68
C=CCc1cccc(C=Nc2c[nH]c(=O)[nH]c2=O)c1O
    i | -0.98
Cc1cccc(NC(=O)N2CCCC2C(=O)Nc2ccccc2)c1 (stereo not drawn)
    i | -0.42
CC(=O)OC1(C(F)(F)F)Oc2ccccc2NC1=O (stereo not drawn)
    i | -0.93
CC(C)(C)NC(=O)C(c1ccco1)N(C(=O)Cn1nnc(-c2ccc(F)cc2)n1)c1ccccc1F (stereo not drawn)
    i | -0.68
CS(=O)(=O)N(CC(=O)Nc1cccc(Br)c1)Cc1ccccc1
    i | 0.04
Cc1ccc2[nH]c(C(F)(F)F)cc(=O)c2c1
    i | 1.65
O=C1/C(=C/c2ccc(O)c([N+](=O)[O-])c2)SC(=S)N1Cc1ccccc1
    i | -1.41

Continuation:
Under each structure – KCNQ2 inh | KCNQ2 inh baseline
O=c1c2c3nc4ccccc4nc3n(CC3CCCO3)c2ncn1CCc1ccccc1 (stereo not drawn)
    i | 0.95
CCc1nc2oc3cc(OC)ccc3c(=O)c2c(=O)n1Cc1ccccc1
    i | 0.99
Cc1ccc(CNC(=O)CCS(=O)(=O)c2ccc3c(c2)NC(=O)C(C)S3)cc1 (stereo not drawn)
    i | 1.72
CN(c1ccccc1)c1nc(N)c([N+](=O)[O-])c(N2CCCCCC2)n1
    i | -0.88
O=C(Nc1ccc(F)cc1F)c1cc2ccccc2oc1=O
    i | 0.67
Clc1cccc(CSc2nc3ccncc3[nH]2)c1
    i | 0.59
O=C(Nc1ccccc1N1CCCC1)c1ccc(Br)o1
    i | -0.74
Cc1ccc(Cn2c(=O)n(-c3ccccc3)c(=O)c3ccc(C(=O)NCc4ccco4)cc32)cc1
    i | -1.61
Cc1cccc(N2C(=S)N=C(Nc3c(C)cccc3C)C23CCOC(C)(C)C3)c1 (stereo not drawn)
    i | 1.34
C=CCOc1nc(-c2ccccc2Cl)nc2ccccc12
    i | -0.9

The list continues.
Under each structure – KCNQ2 inh | KCNQ2 inh baseline
c1cc(CSc2nnc(-c3ccc4c(c3)OCO4)o2)ccn1
    i | -0.91
COc1ccc(C(=O)N[C@H]2COC(C)(C)O[C@H]2c2ccccc2)cc1
    i | 2.48
Cc1ccccc1Nc1c(-c2ccccn2)nc2c(C)cccn12
    i | -2.31
Cc1cc(/C=N/Nc2nc(N3CCOCC3)nc(N3CCOCC3)n2)c(C)n1-c1ccccc1
    i | 0.26
CC(C)CC(C(=O)O)N1C(=O)[C@@H]2[C@H](C1=O)[C@@H]1C[C@H]2C(Br)C1Br (stereo partly drawn)
    i | 1.11
CC(C)(C)CC(=O)N[C@@H](Cc1ccccc1)c1nc2ccccc2[nH]1
    -7.25* | 0.26*
N#C/C(=C/c1cccc([N+](=O)[O-])c1)c1nnc2n1CCCCC2
    i | -1.98
CCOC(CCNC(=O)c1cn(CCOC)c(=O)c2c1c1ccccc1n2C)OCC
    i | 0.03
Cc1cc(C)nc(N2CCCC(C(=O)NC(C)CCc3ccco3)C2)n1 (stereo not drawn)
    i | 2.19
O=C(c1ccncc1)N(c1ccc2oc3c(c2c1)CCCC3)S(=O)(=O)c1ccc(F)cc1
    i | 1.73

Further entries.
Under each structure – KCNQ2 inh | KCNQ2 inh baseline
CC(C)Nc1nc(NC(C)C)nc(N(C#N)CCOc2ccc(Cl)cc2Cl)n1
    i | -0.9
CC(=O)Nc1nnc(SCC(=O)NC2CCCC2)s1
    i | 0.29
Cc1ccc(NS(=O)(=O)c2ccc(-c3csc(C)n3)s2)c(C)c1
    i | -0.02
CNc1ccc(Br)cc(C(=O)/C=C/c2cc(OC)ccc2OC)c1=O
    i | -1.42
N#Cc1nc(COc2ccc(F)cc2)oc1NCCN1CCOCC1
    i | 2.8
COc1ccc(S(=O)(=O)N2CCN(C(=O)c3ccco3)CC2)c(C)c1C
    i | 1.82
Cc1ccc(C(=O)Nc2cccc(C(=O)O)c2)cc1S(=O)(=O)N1CCOCC1
    i | 1.64
Brc1ccc(-c2nnc(-c3ccccc3Br)o2)cc1
    i | -0.12
COc1cc(/C=C/C(=O)O)cc(S(=O)(=O)NC2CCCC2)c1OC
    i | 1.71
COc1ccc(-c2nc(-c3cccnc3)no2)cc1
    i | -0.41

New compounds follow:
Under each structure – KCNQ2 inh | KCNQ2 inh baseline
CC[n+]1cc(C)ccc1/C=C/c1ccc(N(C)C)cc1
    i | 8.59
CCOC(=O)c1cc(C)n(-c2c(C)n(C)n(-c3ccccc3)c2=O)c1C
    i | 0.76
CCOc1cc(CNn2cn[nH]c2=S)cc(Cl)c1OCc1ccccc1F
    i | -0.21
Cc1ccc(C)c(NC(=O)COC(=O)Cn2c(C)csc2=O)c1
    i | -0.55
COc1ccc(C(=O)NNC(=O)CSc2nnc(-c3cccnc3)n2C)cc1
    i | -0.63
CCOC(=O)c1cnc2c(OC)cccc2c1Nc1ccc2c(c1)OCCO2
    i | -2.23
Cc1c2n(c3ccccc13)CCC2=O
    i | 0.99
CCC(=O)N1CCN(CCN=CC2=C(O)CC(C)(C)CC2=O)CC1
    i | -1.95
Cc1oc(CC(C)C)cc1C(=O)Nc1cccc2ccccc12
    -7.74* | -0.29*
O=C(CNC(=O)c1ccccc1F)N/N=C/c1cc(Br)ccc1OCc1ccccc1
    i | -1.37

New compounds follow:
Under each structure – KCNQ2 inh | KCNQ2 inh baseline
O=C(CCCCn1c(=O)c2ccccc2n(Cc2ccccc2F)c1=O)NC1CCN(Cc2ccccc2)CC1
    i | 0.56
CCC(=O)n1nc(-c2cccnc2)nc1NCc1cccs1
    i | 0.03
CCOc1ccc(C2=CS/C(=C(\C#N)c3nnc4n3CCCCC4)N2CC)cc1
    i | -0.85
COc1ccc(C(=O)COC(=O)CNC(=O)C2CCCCC2)c(OC)c1
    i | -1.17
COc1ccc(S(=O)(=O)N(CC(C)C)CC(C)C)c2cccnc12
    i | -0.09
COc1ccc(C(C)=O)cc1CSc1nnc(Nc2ccc(C)cc2)s1
    i | -1.07

The list is partial. The share of hits here may be higher or lower than overall.
